eIF4H inh – human eIF4H binding inhibitors, primary screen, translation initiation inhibitor project, biochemical, uHTS, fluorescence polarization. Eukaryotic translation initiation factor 4H (Homo sapiens), Q15056. eIF4H fluorescence polarization binding assay. inhibition, % at 35 µM. hit rate 0.94% among 290,000. AID 2012, 2009;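 active = 50% or more with normal probe brightness, or confirmed in later tests; about a fifth of its hits are not listed in these tables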;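 note: calls also rest on retests at 20 µM and on dose response follow-up; 0% = protein and probe with vehicle and 100% = probe without protein; strong numbers were not always called active; many hits fall short of the cut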
MT1-MMP act inh – blockers of MT1-MMP proenzyme processing, primary screen, HT1080 RFP-PRO-GFP cells, GFP/RFP fluorescence; AID 651647, 2012; GFP/RFP ratio fluorescence, overnight; percent of plate control window, DMSO zero; GFP/RFP ratio change, % at 20 µM; hit rate 0.061% among 360,000;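 active = GFP/RFP ratio change of at least 30% with cell ATP level not reduced by more than half and red fluorescence within 50% of control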; note: strong numbers were not always called active
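Assay system – RFP-PRO-GFP reporter HT1080 cells · Compound dosing – single dose of 20 µM compound, 1% DMSO final · Incubation – overnight compound exposure at 37 °C · Measure – GFP/RFP fluorescence ratio · Benchmarks – DMSO wells and RFP-L50D-GFP cells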
Rce1 inhib – yeast Rce1p protease inhibitors, primary screen, biochemical, fluorescence, cell-free homogeneous; hit rate 0.27% among 290,000; yeast membranes, quenched prenylated peptide cleavage fluorescence; calls only; CAAX prenyl protease 2 (Saccharomyces cerevisiae (strain ATCC 204508 / S288c)), Q03530;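 active = fall in fluorescence gain of 50% or more versus controls, with final raw signal at or below 3038400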;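 note: plate controls were neutral control wells for no effect and wells lacking membranes for full effect; tested at 10 µM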
CSC inhib – cancer stem cell viability inhibitors, primary screen, luminescence | hit rate 1.1% among 300,000 | cancer stem cell-like cells viability | AID 2717, 2010 | inhibition, % at 7.5 µM;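 active = mean at 75% or more and at least half the replicates too; tested in HMLE shEcad cells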;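 note: 0% = median of negative and 100% = median of positive control wells; the first replicate is given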
UUG fidelity – modulators of yeast start codon fidelity, primary screen, whole organism, S. cerevisiae, single point, plate reader; hit rate 0.13% among 350,000; activity score, % at 18.7 µM; S. cerevisiae UUG-firefly luciferase reporter, luminescence/redox ratio;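 active = replicate mean at a twofold rise or more, about +100% in these data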;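 note: firefly luciferase made from a UUG start codon reports start codon fidelity; reporter light over untreated wells divided by growth signal over untreated wells; some hits fall short of that in this replicate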
HIV Env fusion – inhibitors of HIV-1 Env-driven cell-cell fusion, primary screen, HeLa-JRFL effector, CEM21 target cells, luciferase; inhibition, % at 12.3 µM; AID 651610, 2012; hit rate 1.1% among 360,000;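 active = mean replicate inhibition score of at least 50 and every replicate individually at or above 50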;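 note: 0% = plate neutral controls and 100% = maraviroc near 300 nM; one replicate is shown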
PABP polyA inh – PABP poly(A) RNA binding inhibitors, primary screen, biochemical, fluorescence polarization, uHTS; hit rate 1% among 290,000; Polyadenylate-binding protein 1 (Homo sapiens), P11940; inhibition, % at 35 µM;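 active = 50% or more with normal probe brightness, or confirmed in later tests; about a fifth of its hits are not listed in these tables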;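 note: calls also rest on retests at 20 µM and on dose response follow-up; controls were probe without protein and protein plus probe with vehicle; some compounds called inactive have numbers as strong as hits; many hits fall short of the cut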
Target sequence (P11940 whole entry, looked up): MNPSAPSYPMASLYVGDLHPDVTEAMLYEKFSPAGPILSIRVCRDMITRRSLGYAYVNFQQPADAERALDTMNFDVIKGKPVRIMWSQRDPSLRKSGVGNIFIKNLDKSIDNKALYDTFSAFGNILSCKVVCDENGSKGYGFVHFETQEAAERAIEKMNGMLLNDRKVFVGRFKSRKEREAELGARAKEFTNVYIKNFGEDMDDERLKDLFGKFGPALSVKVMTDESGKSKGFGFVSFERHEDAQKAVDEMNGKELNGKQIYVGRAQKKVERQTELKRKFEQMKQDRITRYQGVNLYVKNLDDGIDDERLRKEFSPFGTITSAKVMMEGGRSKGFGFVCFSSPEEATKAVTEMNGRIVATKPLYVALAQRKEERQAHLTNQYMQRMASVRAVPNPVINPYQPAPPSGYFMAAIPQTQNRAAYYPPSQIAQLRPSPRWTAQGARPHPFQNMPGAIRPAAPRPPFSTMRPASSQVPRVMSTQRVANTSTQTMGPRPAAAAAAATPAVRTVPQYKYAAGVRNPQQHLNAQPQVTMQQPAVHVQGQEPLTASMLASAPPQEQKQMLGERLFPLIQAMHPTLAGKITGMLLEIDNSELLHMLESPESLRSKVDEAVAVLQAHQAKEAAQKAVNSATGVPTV
MT1-MMP act inh RFP – further read-out of MT1-MMP act inh, marked with its call; RFP signal change, %; measured here: RFP expression control read;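 0 = vehicle wells; hits needed this value within 50% of zero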
The depositor's hits bear a star; i = inactive; nt = no result given; & = joins results of further samples.

SMILES	eIF4H inh	MT1-MMP act inh	MT1-MMP act inh RFP	Rce1 inhib	CSC inhib	UUG fidelity	HIV Env fusion	PABP polyA inh
CCOc1ccc(NC(=O)C(=O)NCC2CCCN2CC)cc1 (configuration not stated)	-15.9	4.3	2.0	i	-2.0	-21.9	16.5	-9.3
Cc1ccc(C(=O)NCC(=O)OCc2nc3ccsc3c(=O)[nH]2)cc1C	nt	-1.0	3.2	nt	nt	-28.8	-4.3	nt
CC(C)CNc1ncnc2c1ncn2[C@H]1CN(CCN2CCOCC2)C[C@@H](CO)O1	nt	2.3	4.9	nt	nt	-5.3	-22.2	nt
CC(C)CN(C(=O)Cn1nnc(-c2ccc(Cl)cc2)n1)C1CCS(=O)(=O)C1 (configuration not stated)	nt	-0.6	0.6	nt	nt	-15.5	23.8	nt
CCn1c(SCC(=O)c2c(N)n(C3CC3)c(=O)[nH]c2=O)nc2cc(S(N)(=O)=O)ccc21	nt	-3.1	3.2	nt	-23.2	-4.1	nt	nt
O=C(Nc1ccncc1)Nc1ccc(F)cc1	0.5	3.2	2.3	i	10.1	17.3	18.6	-1.0
CC(=O)N1CCc2cc(S(=O)(=O)NCCCN3CCN(Cc4ccccc4)CC3)ccc21	-13.9	2.3	-1.0	i	-8.5	7.8	-3.1	0.0
CN(C)C(=S)NCc1ccccc1	-10.5	-0.1	2.9	i	-9.7	3.3	nt	-4.4
COc1ccc(S(=O)(=O)Nc2ccc3c(c2)COC3=O)cc1OC	-4.8	-0.3	-0.5	i	14.0	-18.3	-27.0	-0.8
O=C(CN1C(=O)c2ccccc2S1(=O)=O)NC1CC2CCC1C2 (configuration not stated)	-2.2	0.6	6.0	i	-7.5	-4.2	-17.5	-2.8
Cc1ccc(-c2nnc(Nc3ccccc3)o2)cc1	-6.1	2.7	-4.4	i	31.8	-40.3	nt	2.8
C=CCSC(=S)NC1CCS(=O)(=O)C1 (configuration not stated)	4.9	-0.9	4.4	i	22.1	nt	11.6	12.0
NC(=O)CSc1nnc(-c2cc(-c3ccc(Cl)cc3)nc3ccccc23)o1	-8.5	7.0	4.6	i	4.2	nt	9.8	-8.4
Cc1cc(Nc2ccc(C)c(C)c2)n2nc(C)nc2n1	0.5	2.2	-0.2	i	2.8	-9.1	-56.5	-7.0
CCCc1nnc(NC(=O)CN2CCN(C)CC2)s1	2.2	3.0	-1.4	i	16.0	-23.1	-42.8	18.9
CCCCn1c(NCc2ccncc2)nc2ccccc21	-0.7	0.1	-0.5	i	8.5	1.9	-2.5	23.4
Cc1cc(C)cc(C(=O)NN2CCOCC2)c1	19.5	-0.5	-0.6	i	3.3	-19.7	nt	7.4
CC(C)C[C@H]1CNC(=S)N1C[C@H]1CCCN1C[C@H](Cc1ccccc1)N1C[C@H](Cc2ccc(O)cc2)N(CC2CCCCC2)C1=S	nt	-3.7	-6.0	nt	nt	-20.3	0.4	nt
O=C(CCCC(=O)N1CCN(c2cccc(Cl)c2)CC1)c1ccccc1	-2.1	0.5	-1.9	i	nt	10.6	-9.9	3.0
CC(c1ccco1)N(C(=O)Nc1ccc(Cl)cc1)c1ccccn1 (configuration not stated)	13.6	-1.5	-3.9	i	4.1	-10.4	nt	15.4
O=C(Cc1cccc(NC(=O)C2CCCN(C(=O)C3CCC3)C2)c1)Nc1ccc(C(=O)N2CCCCC2)cc1 (configuration not stated)	nt	4.5	6.6	nt	nt	-1.5	2.5	nt
OCC[C@@H]1C[C@H](O)[C@@H](O)[C@@]2(CCCCO2)O1	nt	-2.4	5.0	i	0.1	-8.6	2.3	nt
C#CCOCCOCCOCCNc1nc(N2CCN(C(=O)Cn3cc(CC(C)O)nn3)CC2)nc(N2CCN(C(=O)[C@H](C)n3cc(CCC(=O)O)nn3)CC2)n1 (some centres not stated)	nt	-2.5	-0.3	nt	nt	5.7	-18.1	nt
CCOc1ccc(N2C(=O)CC(N3CCN(C(=O)c4ccco4)CC3)C2=O)cc1 (configuration not stated)	-5.7	8.3	7.1	i	-13.1	-15.3	1.0	-9.9
O=C(Cn1nnc(-c2ccccc2)n1)NCc1cccs1	-12.2	1.1	0.5	i	-7.7	-1.6	nt	-4.2
O=C(COC(=O)/C=C/c1ccccc1)NCc1ccc2c(c1)OCO2	nt	7.2	1.2	nt	-2.4	-32.9	-1.9	nt
Oc1ccc(N2CCN(C(c3cccnc3)c3nnnn3Cc3ccccc3)CC2)cc1 (configuration not stated)	11.6	11.0	-1.9	i	-0.4	-26.2	nt	0.0
COC(=O)c1cccc(NC(=O)CCNC(=O)c2ccc([N+](=O)[O-])cc2)c1	-7.1	10.1	4.5	i	-5.5	-5.4	-65.8	3.3
COc1ccc(C(=O)CSc2nc3ccccc3n2CC(=O)c2ccccc2)cc1	-6.6	8.4	4.1	i	-4.1	-11.5	nt	2.5
CCOC(=O)C1=C(C)NC(=O)NC1c1ccc(OC)c(CN2CCOCC2)c1 (configuration not stated)	3.0	-0.7	9.9	i	-11.9	-14.8	nt	1.4
CCn1c(=O)c([N+](=O)[O-])c(NCc2ccco2)c2ccccc21	1.3	0.2	-4.4	i	-12.9	9.3	12.6	3.8
CC(C(=O)Nc1ccc(OCc2ccccc2)cc1)N1CCCC1 (configuration not stated)	3.9	4.7	3.5	i	-4.9	-9.3	-3.4	-7.6
CCn1c(=O)c([N+](=O)[O-])c(NC2CCS(=O)(=O)C2)c2ccccc21 (configuration not stated)	5.7	2.8	0.0	i	-5.0	nt	24.8	-6.5
C=C[C@]1(C)C=C2CCC3[C@](C)(CCC[C@@]3(C)C(=O)O)C2CC1 (some centres not stated)	nt	-1.5	0.8	i	-8.8	-9.3	nt	nt
Cc1ccccc1N1CCN(c2ccc(NC(=O)C3CCCCC3C(=O)O)cc2)CC1 (configuration not stated)	-2.3	5.0	2.7	i	78.6*	nt	21.7	-7.0
COc1ccc(C2/C(=C(/O)c3ccccc3)C(=O)C(=O)N2C)c(OC)c1 (configuration not stated)	-5.2	-5.2	2.8	i	-21.2	-9.6	18.6	-15.0
COc1ccc(-c2cc(C(F)(F)F)n3nc(C(=O)N4CCN(C(=O)c5ccco5)CC4)cc3n2)cc1	-2.5	3.9	0.6	i	-3.9	-13.4	21.2	-4.7
Cc1nn(-c2ccc(F)cc2)c(C)c1NS(=O)(=O)c1ccc(Cl)cc1	2.9	7.5	1.9	i	nt	-10.6	-78.0	-6.5
COc1ccc(CCNC(=O)CCNS(=O)(=O)c2cc(Br)cnc2N)cc1OC	-11.9	-4.8	-4.5	i	-4.9	-14.8	10.3	5.9
Cc1nc(N)[nH]c(=O)c1CC(=O)OCCCl	-5.9	8.8	6.1	i	-11.3	1.9	-0.9	8.2
CC(C)NC(=O)NC(=O)COC(=O)c1ccccc1O	-7.2	-2.3	3.3	i	-7.7	-4.1	-14.2	5.6
COc1cc(O)c(C(CC(=O)N2CCCCC2)c2ccc(N(C)C)cc2)c(OC)c1 (configuration not stated)	4.3	-0.7	1.7	i	nt	-18.1	-28.4	-3.8
CCc1ccc(OCC(=O)N(C)C)c(Br)c1	-5.3	4.7	2.5	i	-6.7	-16.5	-6.2	-5.7
O=C(c1ccc2c(c1)OCO2)N(c1ccc(Cl)cc1)C1C=CS(=O)(=O)C1 (configuration not stated)	1.6	2.9	5.1	i	-22.1	-4.0	0.2	2.3
CN(C(=O)COC(=O)c1ccc(Cl)s1)C1(C#N)CCCCC1	nt	7.3	7.1	nt	nt	-20.3	-10.7	nt
CCOc1cccc(N2C(=O)CC(N3CCN(c4nc5ccccc5s4)CC3)C2=O)c1 (configuration not stated)	-8.9	2.6	-2.4	i	-13.4	nt	-20.9	-5.1
COc1ccc(-c2nsc3c(N4CCCCC4)ncnc23)cc1	-0.3	4.9	-2.9	i	58.2	nt	-310.7	-4.1
O=C(Nc1cccn(Cc2c(Cl)cccc2Cl)c1=O)c1ccccc1Cl	-3.8	-5.8	-21.8	i	-1.0	-6.4	1.2	4.4
Cc1ccccc1Cn1nc(C)c(NC(=O)c2ccccc2)c1C	-1.6	-0.5	-0.4	i	nt	1.1	6.2	-4.8
Cc1ccc2oc(=O)cc(CN3CCCCC3)c2c1	-5.3	0.8	5.5	i	-7.0	-19.0	-2.3	3.8
CN(CC(=O)Nc1cccc(F)c1)C(=O)c1ccc(N2CCCCCC2)c([N+](=O)[O-])c1	nt	1.2	-18.9	i	3.2	nt	13.8	nt
Nc1nnc(Sc2ccc(Cl)cc2[N+](=O)[O-])s1	1.7	-0.8	0.2	i	-5.1	nt	-73.6	-4.4
C=CCn1c(SCCCC)nc(O)cc1=O	-5.2&-1.5	-1.9&1.3	-0.2&2.9	i	-1.3&1.1	1.6&-7.6	11.1&-78.5	5.7&4.3
CCOC(=O)N1CCN(c2c(N3CCN(c4ccccc4F)CC3)c(=O)c2=O)CC1	-14.3	1.9	0.1	i	-5.4	7.2	4.6	1.5
O=C(NN=Cc1cccc2ccccc12)C1CC1	nt	2.1	-3.2	nt	nt	0.3	-105.9	nt
CN(CCc1ccccn1)C(=O)CCC1CCCN(C(=O)c2ccsc2)C1 (configuration not stated)	2.7	-0.9	1.9	i	nt	nt	11.6	-13.1
C=C(C)C(=O)Nc1cccc(C2=NOC3(C2)C[C@H](C(N)=O)N(C(=O)/C=C/C)C3)c1 (some centres not stated)	87.8*	-2.0	6.5	i	-11.5	-4.7	17.2	68.4*
CCCOc1cccn2c(N(C=O)Cc3ccc(OC)cc3)c(CC)nc12	nt	0.2	3.5	nt	nt	-14.9	-15.6	nt
CCOc1cc(NC(=S)NCCCN2CCOCC2)c(OCC)cc1NC(=O)c1ccco1	-8.0	-0.2	0.8	i	-1.0	-3.1	-4.7	-4.0
COc1ccccc1C(=O)NCCNc1ccc([N+](=O)[O-])cc1Cl	-4.2	1.5	-4.0	i	-2.6	-5.9	-0.6	5.3

(list continues)
SMILES	eIF4H inh	MT1-MMP act inh	MT1-MMP act inh RFP	Rce1 inhib	CSC inhib	UUG fidelity	HIV Env fusion	PABP polyA inh
COc1ccc(S(=O)(=O)N2CCCCC2)cc1NC(=O)CSc1ncnc2ccccc12	-3.1	-1.6	-14.5	i	-10.9	nt	nt	5.6
Cc1ccsc1-c1cc(C(=O)O)c2c(ccc3ccccc32)n1	30.1	-4.4	-1.4	i	-7.6	-14.8	-9.5	20.2
CCNC(=O)C1(C)CCCN1C(=O)c1ccc(F)c(Cl)c1 (configuration not stated)	nt	4.3	6.0	nt	nt	-3.5	-40.5	nt
COC(=O)C1=C(Nc2ccc(OC)cc2)C=C(C)C(C(=O)OC)C1c1ccc(C)cc1 (configuration not stated)	-0.9	-6.9	-6.7	i	-1.9	-25.4	nt	-5.5
CCOc1ccccc1N(CC(=O)N/N=C(\C)c1cccc(Br)c1)S(C)(=O)=O	4.1	-1.8	-5.0	i	-0.9	nt	-185.4	12.6
COCCN(CC(=O)Nc1cccc(C)c1C)C(=O)c1oc2c(Cl)cccc2c1C	nt	-2.6	-1.3	nt	-4.2	-15.6	nt	nt
O=[N+]([O-])c1ccc(NN=Cc2ccco2)nc1	nt	-3.3	-7.0	nt	nt	-13.0	-60.7	nt
